# Screens (PubChem BioAssay)
# Sa ugtP lethal = kills S. aureus RN4220 lacking UgtP. S. aureus RN4220 ugtP deletion, OD600 growth, 16 h; some inactives read as strong as hits. growth inhibition, % (test concentration not listed). 0.54% of 330,000 active;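 active means z-score under -3 and OD600 up to 0.15 on both plates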;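 further: plate controls were untreated wells for no effect and antibiotic for full effect; wells of about 80 µL received 100 nL stock; the first replicate is given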
# RN4220 kill = S. aureus RN4220 growth inhibition; inhibition, % (no concentration beside the values); 0.33% of 330,000 active; OD600, 16 h;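 active means z-score of -3 or lower and OD600 up to 0.18 on both plates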;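 further: plate controls were untreated cells for no effect and reference antibiotic for full effect; stock transfer was 100 nL into about 80 µL; one replicate is shown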
# Bead autofluor = flagged as autofluorescent in microsphere protease counterscreen; fluorescence intensity (test concentration not listed); 3.1% of 360,000 active; compound autofluorescence counterscreen, microsphere flow cytometry; active compounds read high;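 active means at least 3 SD above the mean of all compounds, about 16000 in these data; inconclusive means too few beads counted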;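 further: 100 nL of 1 mM stock went into each well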
# Mtb hypoxia inh = reduces hypoxia-regulated biosensor signal in M. tuberculosis | AID 1159583 | M. tuberculosis hypoxia-regulated fluorescent reporter, fluorescence | fluorescence inhibition, % (concentration not given with the values) | 0.1% of 300,000 active;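 active means 35 to 45% if threefold the growth effect, above 45% if 1.5-fold the growth effect; inactive means the rest, general growth blockers included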;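 further: wells of about 50 µL received 100 nL stock; 0% = vehicle wells and 100% = reference inhibitor wells; whole bacteria with a GFP reporter of the hypoxia response; strong numbers were not always called active; many hits fall short of the cut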
# BJeLR lethal = BJeLR cell viability loss; AID 1554; BJeLR (HRASV12) viability, CellTiter-Glo ATP luminescence, 48 h; reference of the scale not given here; 0.17% of 300,000 active; inhibition, % (concentration not given with the values);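 active means replicate mean above 50%; inconclusive means above 50% but judged a plate artefact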;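 further: 50 nL library stock added to about 25 µL; numbers are from one replicate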
# PrP UTR inh = inhibition of PrP 5' UTR reporter expression; cell-based PrP 5' UTR mRNA reporter, plate reader; inhibition, % (no concentration beside the values); 0.35% of 340,000 active;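 active means every replicate at 50% or more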;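 further: 0 = median of the neutral control wells; tested in H4 reporter cells; numbers are from one replicate; inactives centre near -14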
# Mtb hypoxia inh growth = recorded beside Mtb hypoxia inh, whose call it bears; growth inhibition, %; measured here: M. tuberculosis growth (absorbance);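 0% = vehicle and 100% = reference antibiotic; read after six days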
# An asterisk follows results filed as active; ? = inconclusive; . = no result given.
SMILES,Sa ugtP lethal,RN4220 kill,Bead autofluor,Mtb hypoxia inh,Mtb hypoxia inh growth,BJeLR lethal,PrP UTR inh
CN(c1ccccc1)S(=O)(=O)c1cccc(NC(=O)Cn2cnc3ccccc3c2=O)c1,0,3.9,5034,.,.,-2,1
O=C(COC(=O)c1ccccn1)NC1CCCCC1,2,2.1,4290,15,3,4,-7
CC1CN(C(=O)C(C)Sc2nnnn2C)CC(C)O1 (stereo not drawn),3,-0.2,3649,13,0,7,-7
CCOP(=O)(OCC)C(O)c1ccc(N(C)C)cc1 (stereo not drawn),2,1.8,5134,5,1,-8,-12
O=C(OCC(=O)N1CCN(C(=O)c2ccco2)CC1)c1cc(F)c(F)cc1Cl,10,3.7,3777,24,17,.,-5
O=C(c1ccccc1Nc1ccc(SC(F)F)cc1)N1CCCCC1,-3,1.6,3968,-1,-6,-6,-9
Cc1ccc(NC(=O)CN2CCN(C)CC2)cc1S(=O)(=O)N1CCOCC1,4,5.4,?,-9,-6,-3,-32
O=C(CSc1nnc(COc2ccc(Cl)cc2)n1Cc1ccco1)c1ccccc1F,-3,0.2,3553,7,16,-14,-5
COc1cccc(-n2nnc3c(=O)n(C/C=C/c4ccccc4)cnc32)c1,.,.,6095,.,.,7,-4
CCCCSc1nc2c(c(=O)[nH]c(=O)n2C)n1CCc1ccccc1,-5,-2.5,4487,3,5,-13,-12

# Part of the list above in order of length of the SMILES, largest number first.
SMILES,Sa ugtP lethal,RN4220 kill,Bead autofluor,Mtb hypoxia inh,Mtb hypoxia inh growth,BJeLR lethal,PrP UTR inh
Cc1ccc(NC(=O)CN2CCN(C)CC2)cc1S(=O)(=O)N1CCOCC1,4,5.4,?,-9,-6,-3,-32
CCCCSc1nc2c(c(=O)[nH]c(=O)n2C)n1CCc1ccccc1,-5,-2.5,4487,3,5,-13,-12
O=C(c1ccccc1Nc1ccc(SC(F)F)cc1)N1CCCCC1,-3,1.6,3968,-1,-6,-6,-9

# Next entries follow:
SMILES,Sa ugtP lethal,RN4220 kill,Bead autofluor,Mtb hypoxia inh,Mtb hypoxia inh growth,BJeLR lethal,PrP UTR inh
Cc1noc(C)c1C(=O)OCC(=O)Nc1c(F)cccc1F,-1,1.9,4397,3,16,4,1
CCN(CC(=O)Nc1ccccc1OC)C(=O)c1ccc(NS(=O)(=O)c2ccc(C(C)=O)cc2)cc1,.,.,?,.,.,7,-12
CCOC(=O)NNC(=O)C1CCC(C)CC1 (stereo not drawn),3,2.9,4003,4,-8,-14,-51
CCN(c1ccc(NC(=O)COC(=O)c2cc3ccccc3oc2=O)cc1)C(C)C,0,4.1,2130,-8,12,-7,-34
O=C(/C=C\Nc1ccc2c(c1)OCO2)c1cccs1,4,6.7,2262,11,7,-13,17
O=C(CCc1ccccc1)NCC1(c2ccccc2)CCCC1,-1,7.6,3263,-1,4,-4,.
CCOc1ccccc1OCC(=O)Nc1ccc(Cl)cc1C(=O)c1ccccc1,69,3.4,2317,17,0,-5,-11
Cc1ccc2c(C)c(C(=O)Nc3cccnc3)oc2c1,-9,2.6,8033,-3,4,-2,-44
COc1ccc(C(=O)NCC(=O)NCC2COc3ccccc3O2)cc1 (stereo not drawn),0,-1.5,4324,-8,-7,-22,-11
Cc1ccc(C)c2[nH]c(=O)c(CN(Cc3ccco3)C(=S)NCC3CCCO3)cc12 (stereo not drawn),-5,3.4,4447,7,12,8,-37
OC(CN=c1sc2ccccc2n1CC(O)COc1ccccc1)COc1ccccc1 (stereo not drawn),-10,0.1,4512,5,1,-14,-13
O=C(CC1C(=O)NCCN1Cc1cccc(F)c1)NC1CCCCC1 (stereo not drawn),2,2.8,5504,7,-11,-6,-13
COc1ccccc1Cn1c(=S)[nH]c2ccc(F)cc2c1=O,14,1.3,3380,4,-3,-5,-17
CCn1c(SCC(=O)Nc2ccc3c(c2)OCO3)nnc1C1CC1,-1,-1.9,6429,-7,0,3,-23
Cc1nc2ccccc2nc1OCC(=O)NCc1ccc2c(c1)OCO2,8,0.3,4519,8,10,1,-11
COc1cccc(C(=O)NCC2CCCN(C3CCCCC3)C2)c1OC (stereo not drawn),5,2.8,5622,-4,0,-7,-16
Cc1ncoc1C(=O)N1CCCC(C(=O)c2ccc3c4c(cccc24)CC3)C1 (stereo not drawn),4,-7.5,4231,12,2,3,-3
CCC(CC)C(=O)Nc1cccc(/C(C)=N/NC(=O)c2c(Br)cnn2C)c1,.,.,4688,.,.,5,-6
Cc1ccc(CNC(=O)CCS(=O)(=O)c2ccc3c(c2)CC(C)N3C(=O)C2CC2)o1 (stereo not drawn),1,-1.3,5973,5,-8,3,-14
CCOC(=O)C1CCN(C(=O)c2ccc(Br)o2)CC1,1,0.7,9350,2,-1,7,-10
O=C(c1ccco1)N1N=C(C2CCCCC2)CC1(O)C(F)(F)F (stereo not drawn),-10,14,4670,-5,-3,10,-19
CCOC(=O)c1cnc(Nc2ccccc2)nc1C(F)(F)F,51,2.7,6432,6,4,2,-37
CC(=O)c1cc(C(=O)c2ccccc2)sc1Nc1ccccc1,17,6.4,7513,3,5,-10,-46
Cn1c(C(=O)N[C@@H](C(=O)O)c2ccccc2)cc2cc(Cl)ccc21,5,1.4,2979,-1,-7,-18,-31
CS(=O)(=O)c1ccc(Cl)c(NC(=O)Nc2ccccc2)c1,-1,5.7,4919,15,12,2,-10
COCCN(CC(=O)Nc1cccc(C)c1C)C(=O)c1ccc2ccccc2n1,-1,0.2,3599,0,4,.,-39
COc1cccc(NC(=O)CSc2nnc(COc3ccc4c(c3)CCCC4)o2)c1,3,-5.3,3113,.,.,0,-28
CC(C)c1ccc(C(=O)N2CCCN(C(=O)c3ccc(C(C)C)cc3)CC2)cc1,7,4.5,1924,14,11,-8,-7
CCc1ccc(CC)c(S(=O)(=O)Nc2ccc(C(=O)O)c(O)c2)c1,2,-6.4,2529,0,8,3,-9
N=c1oc2ccc3ccccc3c2cc1C(N)=S,13,1.1,3709,-3,7,5,-13
COc1ccc(C(C(=O)NC2CCCCC2)N(C(=O)c2ccco2)c2ccccc2OC)cc1 (stereo not drawn),1,-6.1,2945,6,2,3,-9
O=C(CN1C(=O)S/C(=C\c2ccccn2)C1=O)Nc1ccc(F)cc1,-1,-0.1,6280,10,9,.,-3
O=C1C(=O)N(C2CCS(=O)(=O)C2)C(c2cccc(O)c2)/C1=C(/O)c1ccc(Cl)cc1 (stereo not drawn),5,2.8,5067,-2,0,8,-11
Cc1ccc(-n2c(O)c(C=NC3CCCCC3N)c(=O)[nH]c2=O)cc1C (stereo not drawn),3,0.1,.,3,13,3,-17
O=C(CSc1nnnn1C1CC1)Nc1cc(S(=O)(=O)N2CCCC2)ccc1Cl,3,2.7,3558,1,9,.,-8
COc1ccc(C=NNC(=O)c2c(C)nc3ccccn23)cc1[N+](=O)[O-],7,-2.7,.,2,-1,.,.
O=C(CN1C(=O)/C(=C/c2ccccc2F)Sc2ccccc21)NCCCN1CCOCC1,16,-1.0,6312,9,7,1,-13
CC(C)OP(=O)(OC(C)C)C(Nc1ccccn1)c1ccc(F)cc1 (stereo not drawn),-1,2.9,2823,15,1,-3,-4
Cc1ccc(Cl)c(NC(=O)CN(C)CC(=O)Nc2ccc(F)c(F)c2F)c1Cl,1,2.4,4296,11,0,-2,10
COc1ccc(C2CC(=O)Oc3ccc(OC)cc32)cc1 (stereo not drawn),-6,7.5,3417,-4,4,.,-21
CCOC(=O)C1(CCCc2ccccc2)CCN(C(=O)C(C)n2cncn2)CC1 (stereo not drawn),6,11,2548,10,0,3,-15
CC(=O)c1ccc(NC(=O)C2CC(=O)N(C(C)C)C2)cc1 (stereo not drawn),2,3.8,4190,-9,-6,3,-14
CCN(CC(=O)N1CCOCC1)S(=O)(=O)c1ccc(Cl)cc1,4,2.9,4866,0,1,3,-15
O=C(O)c1ccc(COc2ccccc2[N+](=O)[O-])o1,8,1.1,2544,-3,-1,2,-9
COc1ccc(C(=O)OCCOc2ccccc2C(C)=O)c(O)c1,-1,6.4,3531,5,-6,2,-13
CCOC(=O)c1sc2nc(C)nc(SC(C)C(=O)NC3CC3)c2c1C (stereo not drawn),5,3.5,3995,1,12,.,-16
Cc1nc2ccccn2c1-c1ccnn1S(=O)(=O)c1ccc(F)cc1,-5,0.1,4737,-4,5,-15,-13
COc1ccc(C(=O)/C=C/C(=O)N(Cc2ccccc2)C(C(=O)NC2CCCCC2)c2ccncc2)c(O)c1 (stereo not drawn),0,-3.0,8572,-16,-3,2,-22
COc1ccc([N+](=O)[O-])cc1NC(=O)Nc1ccc(OC)c(OC)c1,-2,0.1,3318,2,10,2,50
Nc1nc(-c2sc3nc4c(cc3c2N)CCCC4)nc(N2CCOCC2)n1,1,3.3,2660,12,7,-1,-44

# (more compounds)
SMILES,Sa ugtP lethal,RN4220 kill,Bead autofluor,Mtb hypoxia inh,Mtb hypoxia inh growth,BJeLR lethal,PrP UTR inh
CC(=O)N1SC(N)=NC1c1ccccc1 (stereo not drawn),-9,8.6,10349,9,7,-5,-25
O=C(CSc1nnc(-c2ccccn2)n1Cc1ccco1)c1ccccc1,-7,3.6,3368,7,1,-5,-19
CCOc1ccc(S(=O)(=O)N(CC)CC(=O)N2CCOCC2)cc1C,-1,2.6,3914,11,8,-4,-30
Cc1ccc(S(=O)(=O)n2nc(-c3ccco3)nc2N)cc1,5,1.6,3780,13,6,0,-16
Cc1ccc(C(=O)c2ccccc2C(=O)OCC(=O)N2C(C)CCCC2C)cc1 (stereo not drawn),4,3.9,9001,2,0,.,-8
CN(Cc1ccccc1F)C(=O)c1ccccc1Sc1ccccc1C#N,-9,0.4,4353,-2,6,-3,-20
Cc1cc(OCC(=O)Nc2ccc(S(=O)(=O)N3CCN(C)CC3)cc2)ccc1Br,-2,-3.1,6162,-1,0,8,-22
CCN(CC)C(=S)NC(=O)Cc1ccccc1,2,2.2,3352,1,0,8,-27
COc1cc(/C=C2/SC(=S)N(CCC(=O)Nc3ccccc3)C2=O)cc(OC)c1OC,-5,1.4,5597,1,7,-10,-7
CCCN(C(=O)c1cc(Cl)nc2ccccc12)C1CCS(=O)(=O)C1 (stereo not drawn),7,-0.1,4441,7,12,-3,-24
CCOc1ccccc1N(CC(=O)NCCc1ccccc1)C(=O)CCC(=O)Nc1ccccn1,-6,-1.0,5308,9,10,-5,-58
COc1ccc(CCNc2nc(N3CCCCC3)nc(N3CCCCC3)n2)cc1OC,44,4.4,2943,.,.,6,-26

# Grouped by structure, those above with a furan ring, fused or not.
SMILES,Sa ugtP lethal,RN4220 kill,Bead autofluor,Mtb hypoxia inh,Mtb hypoxia inh growth,BJeLR lethal,PrP UTR inh
O=C(OCC(=O)N1CCN(C(=O)c2ccco2)CC1)c1cc(F)c(F)cc1Cl,10,3.7,3777,24,17,.,-5
O=C(CSc1nnc(COc2ccc(Cl)cc2)n1Cc1ccco1)c1ccccc1F,-3,0.2,3553,7,16,-14,-5
Cc1ccc2c(C)c(C(=O)Nc3cccnc3)oc2c1,-9,2.6,8033,-3,4,-2,-44
Cc1ccc(C)c2[nH]c(=O)c(CN(Cc3ccco3)C(=S)NCC3CCCO3)cc12 (stereo not drawn),-5,3.4,4447,7,12,8,-37
Cc1ccc(CNC(=O)CCS(=O)(=O)c2ccc3c(c2)CC(C)N3C(=O)C2CC2)o1 (stereo not drawn),1,-1.3,5973,5,-8,3,-14
CCOC(=O)C1CCN(C(=O)c2ccc(Br)o2)CC1,1,0.7,9350,2,-1,7,-10
O=C(c1ccco1)N1N=C(C2CCCCC2)CC1(O)C(F)(F)F (stereo not drawn),-10,14,4670,-5,-3,10,-19
COc1ccc(C(C(=O)NC2CCCCC2)N(C(=O)c2ccco2)c2ccccc2OC)cc1 (stereo not drawn),1,-6.1,2945,6,2,3,-9
O=C(O)c1ccc(COc2ccccc2[N+](=O)[O-])o1,8,1.1,2544,-3,-1,2,-9
O=C(CSc1nnc(-c2ccccn2)n1Cc1ccco1)c1ccccc1,-7,3.6,3368,7,1,-5,-19
Cc1ccc(S(=O)(=O)n2nc(-c3ccco3)nc2N)cc1,5,1.6,3780,13,6,0,-16

# This is a random part of the collection (roughly 4% active in at least one column).
